# Source: PubChem (Sanford-Burnham Center for Chemical Genomics)
# SENP8 block-1 = SENP8 (human) protease inhibition; Q96LD8; recombinant SENP8, Nedd8 substrate fluorescence; inhibition, % at 20 µM; hit rate 0.64% among 360,000; AID 602440; in the data active = inhibition mostly above about 40%, no sharp cut-off; inactive = mostly below about 27%
# Target sequence (Q96LD8 whole entry, looked up): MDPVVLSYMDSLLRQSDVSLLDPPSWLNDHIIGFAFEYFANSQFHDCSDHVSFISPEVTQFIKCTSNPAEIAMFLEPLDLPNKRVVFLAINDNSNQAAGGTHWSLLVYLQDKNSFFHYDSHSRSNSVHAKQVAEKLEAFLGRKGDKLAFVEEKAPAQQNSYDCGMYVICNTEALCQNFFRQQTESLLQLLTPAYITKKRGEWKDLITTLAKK
# UBC13 polyUb = human UBC13 polyubiquitination inhibition; P61088; UBC13 polyubiquitin chain formation, TR-FRET; inhibition, % at 20 µM; hit rate 0.47% among 330,000; AID 485273; in the data active = inhibition above about 45%, passing the limit was not always enough
# SENP1 inh = blocks the human SENP1 SUMO protease catalytic domain. recombinant SENP1 catalytic domain, CyPet-SUMO1-YPet FRET cleavage. hit rate 0.21% among 360,000. Q9P0U3. inhibition, % at 10 µM;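 active = inhibition at least 30% at 10 µM, raw YFP signal under a set limit, fluorescence ratio 0.5 to 1.5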;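 note: 0% = enzyme with DMSO and 100% = no enzyme wells; some results filed as inactive read as strong as hits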
#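 Material: hSENP1 catalytic domain, recombinant; medium: Tris pH 8 with BME, BSA, NP40 and catalase; compound: single concentration of 10 µM compound, 0.5% DMSO final; technique: FRET read of cyan and yellow fluorescence; timing: 50 min enzyme reaction, room temperature, light-protected; reagent: SFCypet-SUMO1-SFYpet substrate at 25 nM; control set: no-enzyme low, enzyme-DMSO high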
# SENP7 inh = SENP7 protease inhibition. Q9BQF6. recombinant SENP7, Z-RLRGG-aminoluciferin luminescence, 40 min. inhibition, % at 5 µM. hit rate 1.5% among 330,000. AID 434973;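 active = inhibition above about 50% at the single test dose, limit read from the data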;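 note: plate controls were DMSO with enzyme for no effect and no enzyme buffer wells for full effect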
# Target sequence (Q9BQF6 706-1050 limits assumed): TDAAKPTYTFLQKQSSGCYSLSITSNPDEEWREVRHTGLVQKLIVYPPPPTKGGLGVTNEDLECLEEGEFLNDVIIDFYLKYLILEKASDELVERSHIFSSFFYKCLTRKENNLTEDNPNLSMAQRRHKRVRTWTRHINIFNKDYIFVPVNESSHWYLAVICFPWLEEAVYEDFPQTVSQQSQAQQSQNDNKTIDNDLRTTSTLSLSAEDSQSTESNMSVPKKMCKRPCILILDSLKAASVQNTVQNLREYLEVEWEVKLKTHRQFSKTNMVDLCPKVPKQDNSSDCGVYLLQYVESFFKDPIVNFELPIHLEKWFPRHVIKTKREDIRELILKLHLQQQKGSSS
# SENP8 block-2 = blocks the human protease SENP8; AID 2540; hit rate 1.2% among 330,000; inhibition, % at 10 µM; purified SENP8, Z-RLRGG-aminoluciferin cleavage, luminescence; in the data active = inhibition above about 50%
# APOBEC3G inh = inhibitors of human APOBEC3G DNA deaminase; recombinant A3G, ssDNA deamination FAM/TAMRA fluorescence; hit rate 0.28% among 330,000; inhibition, % at 20 µM; Q9HC16;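 active = inhibition of at least 40% at 20 µM, with no more than 30% in the related APOBEC3A deaminase screen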;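 note: plate controls were DMSO wells with A3G for no effect and wells lacking A3G enzyme for full effect; some compounds called inactive have numbers as strong as hits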
# SENP6 block = SENP6 protease inhibition; hit rate 1.8% among 330,000; Q9GZR1; Recombinant SENP6 catalytic domain, aminoluciferin luminescence; AID 2599; inhibition, % at 10 µM;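 active = inhibition above about 50% at the single tested dose, limit read from the data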;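 note: plate controls were DMSO wells with enzyme for no effect and DMSO wells lacking enzyme for full effect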
# Target sequence (Q9GZR1 628-1112 limits assumed): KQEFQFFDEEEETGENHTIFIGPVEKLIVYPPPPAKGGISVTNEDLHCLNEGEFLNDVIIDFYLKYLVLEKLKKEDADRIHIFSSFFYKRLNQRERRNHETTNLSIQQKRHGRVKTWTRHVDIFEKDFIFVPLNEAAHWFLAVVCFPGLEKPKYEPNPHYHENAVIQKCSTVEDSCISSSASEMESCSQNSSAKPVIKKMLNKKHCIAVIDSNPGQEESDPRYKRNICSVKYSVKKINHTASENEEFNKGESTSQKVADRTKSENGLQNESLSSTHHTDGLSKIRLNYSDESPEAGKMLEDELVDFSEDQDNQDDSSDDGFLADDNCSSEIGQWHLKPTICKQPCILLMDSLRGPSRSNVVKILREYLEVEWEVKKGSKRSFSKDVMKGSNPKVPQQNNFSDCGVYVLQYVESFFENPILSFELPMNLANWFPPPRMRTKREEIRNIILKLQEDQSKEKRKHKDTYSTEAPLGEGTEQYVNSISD
# Starred values were filed as active, the others as inactive; i = inactive; nt = not tested or not shown; & = joins results of further samples. This is a subset (hit frequency here may not be typical).
molecule	SENP8 block-1	UBC13 polyUb	SENP1 inh	SENP7 inh	SENP8 block-2	APOBEC3G inh	SENP6 block
Cc1cc2cc(CCNC(=O)CC(C)C)c(=O)[nH]c2cc1C	nt	2	nt	7	8	0	-3
COCCn1c(N)c(S(=O)(=O)c2cccs2)c2nc3ccccc3nc21	-325	14	-36	4	2	-2	20
CC(C)(C)OC(=O)c1c(N)n(CCCN2CCCC2=O)c2nc3ccccc3nc12	-487	20	-38	30	1	-1	18
CC(C)c1cc(=O)oc2c3c4c(cc12)CCCN4CCC3	-285	-5	-18	-6	7	0	13
COc1ccc(C(C)=O)c(Oc2nc(CN3CCOCC3)nc3scc(-c4cccs4)c23)c1	8	-10	0	-5	-5	-4	-6
CC1(C)Cc2c(sc3nc(-c4cccs4)n(N)c(=O)c23)CO1	-293	-17	-18	-5	2	0	-1
OCCN1CCN(c2nc(-c3ccccc3)c3cc(Cl)ccc3n2)CC1	-126	32	-75	9	1	7	-11
COc1cc2cc(CN(Cc3nnnn3Cc3ccco3)C3CCCCC3)c(=O)[nH]c2cc1OC	-486	-20	10	-6	0	11	-15
O=C1c2ccc3c4c(ccc(c24)C(=O)N1c1ccc(O)cc1)C(=O)N(c1ccc(O)cc1)C3=O	21	-3	23	6	3	-19	-2
Cc1nc2nc(-c3cccs3)cn2nc1C	-367	-16	-22	-7	-9	-4	-3
Cc1c(O)c(CN2CCCC2)cc2c3c(c(=O)oc12)CCC3	-293	-1	-30	-9	-4	-2	-17
COc1ccc2oc(=O)c(C(=O)NCC3CCCO3)cc2c1 (stereo unspecified)	i	11	-92	6	0	4	-3
CCC(C)n1c(-c2cccs2)nc2nc3ccccc3nc21 (stereo unspecified)	-310	43	-8	6	14	-11	12
CCCCn1c(=NC(=O)c2ccco2)c(C(=O)OCC)cc2c(=O)n3ccccc3nc21	-327	2	-16	6	1	2	-7
C=CCOC(=O)C1=C(C)NC(SC)=C(C#N)C1c1ccc(OCC)cc1 (stereo unspecified)	-200&-136	2	-8&-1	-2	-3	-6	-8
Cc1cc(=O)oc2c(CN(C)Cc3ccccc3)c(O)ccc12	i	17	-146	11	-4	8	-14
CCCn1c(=NC(=O)c2ccco2)c(C(=O)OCC)cc2c(=O)n3ccccc3nc21	-265	-3	-24	5	-6	-6	-15
N=c1c(C(=O)NCc2ccco2)cc2c(=O)n3ccccc3nc2n1CCc1ccccc1	-392	-10	9	-7	-1	2	-8
COc1ccc(N2CSC3=C(C#N)C(c4cc(OC)c(OC)cc4OC)CC(=O)N3C2)c(OC)c1 (stereo unspecified)	-4	-51	-126	9	4	18	-8
Cc1cc(C(=O)OCCO)c(C#N)c(N)n1	-410	2	-21	-6	-11	-3	-21
CCOC(=O)c1c(C)n(OCc2ccccc2)c2ccc3nonc3c12	-279	3	-11	-8	3	1	2
CN(C)c1ccc(-c2nn3c(-c4ccccc4Cl)nnc3s2)cc1	-294	21	-28	5	-6	-3	4
O=C(Nc1nc2n(n1)C(c1ccccc1)C=C(c1ccccc1)N2)c1ccco1 (stereo unspecified)	-6	7	6	-4	0	8	19
COc1ccc2[nH]c(=O)c(CN(Cc3nnnn3Cc3ccco3)C3CCCCC3)cc2c1	-464	-25	4	-2	-5	10	-10
CC1=C(C(=O)OCC2CCCO2)C(c2ccncc2)C2=C(CCCC2=O)N1 (stereo unspecified)	-415	-6	-64	1	-14	3	11
COc1ccc2[nH]c(=O)c(CN(Cc3ccc(C)cc3)Cc3nnnn3CC3CCCO3)cc2c1 (stereo unspecified)	-353	-12	-30	7	-4	-1	-1
NC(=O)CSc1nnc(-c2ccc(O)cc2)n1Cc1ccco1	12	6	2	2	6	0	0
CCOC(=O)c1sc2nccc(N(C)C)c2c1N=CN(C)C	-477	-1	-79	4	2	-8	0
COc1ccc2c3c([nH]c2c1)[C@H]1C[C@H]2[C@H](C[C@@H](O)[C@H](OC)[C@H]2C(=O)O)CN1CC3	-399	2	-29	7	0	-9	-20
CC1(c2ccccn2)Nc2ccccc2-c2nc3ccccc3n21 (stereo unspecified)	-273	15	-10	-3	-7	-11	-11
COc1ccc(CCn2c(=N)c(C(=O)N3CCN(C)CC3)cc3c(=O)n4ccccc4nc32)cc1	-492	-19	-77	-11	-14	-3	6
O=C1Nc2ccc(S(=O)(=O)N3CCCC3C(=O)O)c3cccc1c23 (stereo unspecified)	-234	-20	-13	-8	-10	-3	-6
COCCn1c(C)cc(C(=O)CSc2nc(C)cc(C)c2C#N)c1C	-45	3	-81	-13	-15	-2	-9
Cn1c(NC(=O)c2ccccc2Br)cc(=O)n(C)c1=O	7	4	0	6	3	-5	-12
CCOC(=O)CC(=O)CSc1nc(C)nc2c1oc1ccccc12	25	-23	-10	-7	-9	3	-19
CC(C)(C)n1nnnc1C(c1cc2cc3c(cc2[nH]c1=O)OCO3)N1CCN(c2ccccc2)CC1 (stereo unspecified)	-262	-6	-12	-8	0	5	-25
Cc1ccc(C2NC(=O)c3c(sc4c3CCN(C)C4)N2)o1 (stereo unspecified)	-275	-10	-27	3	1	-7	-28
COCCNC(=O)C(C#N)c1nc2ccccc2nc1N1CCCCCC1 (stereo unspecified)	-494	-4	4	2	5	-5	17
CCOC(=O)c1cc2c(=O)n3ccccc3nc2n(CC2CCCO2)c1=NC(C)=O (stereo unspecified)	-254	11	-21	-1	-8	-7	-14
CCN(CC)c1nc2ccccc2nc1C(C#N)C(=O)NCCc1ccccc1 (stereo unspecified)	-269	-1	-34	-1	3	-7	-4
CNC(=O)c1cc2c(=O)n3cc(C)ccc3nc2n(C(C)C)c1=N	-487	7	-22	4	1	3	4
COC(=O)c1cnn2c(C(F)(F)F)cc(-c3ccco3)nc12	i	5	-74	-7	3	0	-3
CCc1cc(=O)oc2c(C)c(O)c(CN3CCCCC3)cc12	-278	5	-20	-18	-7	-7	-5
COc1ccc(-c2cc(=O)n(-c3nc4ccccc4[nH]3)[nH]2)cc1	-64	-15	-94	34	87*	-5	91*
Cc1cc(-c2nnc(-c3cc4ccccc4oc3=O)o2)c(C)n1-c1ccccc1	-219	-9	-33	4	-21	-1	4
COC(=O)C1=CN(C(C)C)C=C(C(=O)OC)C1c1cc2c(cc1Br)OCO2	-308	3	-144	3	2	-5	15
CC1Cc2ccccc2N1C(=O)CSc1nnc2n1C(C)(C)Cc1ccccc1-2 (stereo unspecified)	22	-5	0	5	-12	-8	-5
Cn1c(=N)c(S(=O)(=O)c2ccc(F)cc2)cc2c(=O)n3ccccc3nc21	-278	-10	-23	12	5	0	8
CCOC(=O)C1CCN(C(=O)Nc2ccc3nc(-c4ccco4)c(-c4ccco4)nc3c2)CC1	-439	-12	-22	6	14	102	-51
CCOc1ccc2nc(NCCCNS(=O)(=O)c3ccccc3)c(C#N)cc2c1	-281	2	-25	2	-2	-6	9
Cc1nc2ccccc2n2c(O)c(CC(=O)O)cc12	-207	-31	-26	8	9	1	-22
COc1cccc(C2=CC(c3ccc(C)cc3)n3ncnc3N2)c1 (stereo unspecified)	nt	2	nt	-6	-2	-7	-13
Cc1cc(NCc2ccco2)n2c(nc3ccccc32)c1C#N	-415	8	7	-3	2	-2	-10
CCCCCn1c(=NC(=O)c2ccco2)c(C(=O)OCC)cc2c(=O)n3ccccc3nc21	-497	-3	-30&-25	5	3	3	-11
O=c1c(-c2ccccc2)[n+]([O-])c2ccccc2n1O	-4	-10	-6	-9	-8	-3	-4
O=c1[nH]c(=O)n([C@H]2C[C@H](O)[C@@H](CO)O2)cc1C(F)(F)F	1	10	-5	-3	9	-9	-5

# Next part.
molecule	SENP8 block-1	UBC13 polyUb	SENP1 inh	SENP7 inh	SENP8 block-2	APOBEC3G inh	SENP6 block
CN(C)c1ccc(/C=N/n2ncc3ccccc32)cc1	-252	6	-17	2	68*	8	76*
Cn1nnnc1SCc1ccc(C(=O)Nc2nccs2)cc1	1	6	0	6	-7	0	5
COC(=O)C1=CNC=C(C(=O)OC)C1c1ccccc1Cl	i	11	-144	-9	-10	-5	-17
CN1/C(=C\C(=O)C(F)F)C(C)(C)c2ccccc21	-427	-1	-5	-5	-5	-4	9
CCC(=O)Oc1ccc2c(C)c(Cl)c(=O)oc2c1	i	9	-20	5	0	1	1
CCCCC(CC)COC(=O)CCCCC(=O)OCC(CC)CCCC (stereo unspecified)	14	-3	1	-10	-9	-10	2
O=C(CCN1C(=O)C2CC=C(Cl)CC2C1=O)N1CCCCC1 (stereo unspecified)	-8	3	-18	-8	-5	-3	-6
Cc1ccc(S(=O)(=O)c2cc3c(=O)n4ccccc4nc3n(CC3CCCO3)c2=N)cc1C (stereo unspecified)	-410	13	-24	1	-4	-1	-3
Cn1c(=O)c2c(-c3ccccc3)n3c4ccccc4ncc3c2n(C)c1=O	nt	21	nt	1	-8	-2	-14
CCCn1c(CCC(=O)O)ccc1-c1cccs1	i	9	-148	5	5	-2	1
O=c1ccc2cc(O)c(O)cc2o1	-380	23	-29	7	0	-6	-4
Cc1ccc(-n2c(O)c(/C=N/n3cnnc3)c3ccccc3c2=O)cc1	-274	9&-4	-28&-23	4&7	8&0	-4&-5	35&25
CCO/C=C1/C(=O)N(C)C(=O)c2cc(OC)ccc21	-89	0	-42	23	23	-4	46
Cc1cc(NCCCN2CCOCC2)n2c(nc3ccccc32)c1C#N	-316	-9	-87	5	2	-11	2
COc1cc(C2C3CN(C)CC=C3C(C#N)=C(N)C2(C#N)C#N)ccc1OC(C)C (stereo unspecified)	-251	-54	-22	0	-2	-6	3
Cc1cc2n(n1)C(c1ccc(N(C)C)cc1)Nc1ccccc1-2 (stereo unspecified)	-295	16	-91	8	1	-1	8
N=c1c(C(=O)NCc2ccc(F)cc2)cc2c(=O)n3ccccc3nc2n1CCCN1CCOCC1	i	6	10	4	1	-2	3
COc1cc2c(cc1OC)C1=C(C#N)COCN1CC2	-487	20	-62	9	6	3	8
CCCCc1cc(=O)oc2c(CN3CCCC3)c(O)c(Cl)cc12	-296	0	-93	-12	-16	-4	-14
CC(C)Cn1c(N)c(C(=O)NCc2cccs2)c2nc3ccccc3nc21	-303	-6	-22	7	90*	-3	81*
CCCNC(=O)c1c(N)n(-c2cc(OC)cc(OC)c2)c2nc3ccccc3nc12	-299	5	-23	-5	-3	-5	8
COc1ccc2nc(N3CCCC(O)C3)c(C#N)cc2c1 (stereo unspecified)	-483	-25	-22	1	-1	-3	2
Nc1c(S(=O)(=O)c2ccccc2)c2nc3ccccc3nc2n1Cc1ccco1	-286	15	-27	2	5	-6	1
CCN(C)c1ccc(/C=N\n2nnnc2N)cc1	-314	2	-30	8	-1	-8	-23

# An excerpt of these results, with two lines to a compound.
# Screens in order – SENP8 block-1 | UBC13 polyUb | SENP1 inh | SENP7 inh | SENP8 block-2 | APOBEC3G inh | SENP6 block
> CCCCc1cc(=O)oc2c(CN3CCCC3)c(O)c(Cl)cc12
→ -296 | 0 | -93 | -12 | -16 | -4 | -14
> CC(C)Cn1c(N)c(C(=O)NCc2cccs2)c2nc3ccccc3nc21
→ -303 | -6 | -22 | 7 | 90* | -3 | 81*
> COc1ccc2nc(N3CCCC(O)C3)c(C#N)cc2c1 (stereo unspecified)
→ -483 | -25 | -22 | 1 | -1 | -3 | 2

# A different layout for part of the listing above.
# Under each structure – SENP8 block-1	UBC13 polyUb	SENP1 inh	SENP7 inh	SENP8 block-2	APOBEC3G inh	SENP6 block
- Cc1cc(C(=O)OCCO)c(C#N)c(N)n1
    -410	2	-21	-6	-11	-3	-21
- O=C(CCN1C(=O)C2CC=C(Cl)CC2C1=O)N1CCCCC1 (stereo unspecified)
    -8	3	-18	-8	-5	-3	-6
- COc1ccc2c3c([nH]c2c1)[C@H]1C[C@H]2[C@H](C[C@@H](O)[C@H](OC)[C@H]2C(=O)O)CN1CC3
    -399	2	-29	7	0	-9	-20
- CN(C)c1ccc(-c2nn3c(-c4ccccc4Cl)nnc3s2)cc1
    -294	21	-28	5	-6	-3	4
- COc1ccc(C(C)=O)c(Oc2nc(CN3CCOCC3)nc3scc(-c4cccs4)c23)c1
    8	-10	0	-5	-5	-4	-6
